# Sa growth 42C = S. aureus growth inhibition at 42 and 30 °C, primary screen, LtaS inhibitor project, RN4220, two temperatures. OD600, 20 h, 42 °C; stronger effect = lower value. relative growth, % (no concentration beside the values). actives 0.53% (n = 170,000);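 active = growth at 42 °C up to 50% and 20 or more points under that at 30 °C, or under 10% at both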;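 also: 300 nL library stock went into each well; scaled to the means of positive and negative controls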
# GIV-Gai inh = inhibitors of GIV peptide binding to Galpha-i3, primary screen, biochemical, fluorescence polarization, FITC-GIV GBA peptide, rat Galphai3 | Guanine nucleotide-binding protein G(i) subunit alpha-3 (Rattus norvegicus), P08753 | 90 min; stronger effect = lower value; scaled: aluminum fluoride 0%, vehicle 100% | percent of control (FP), % (concentration not given with the values) | actives 0.42% (n = 210,000) | AID 1224905, 2016;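 active = replicate mean at 85% of control or lower, very high polarization wells dropped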;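 also: wells of about 15 µL received 100 nL stock; the first replicate is given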
# Target sequence (P08753 whole entry, looked up): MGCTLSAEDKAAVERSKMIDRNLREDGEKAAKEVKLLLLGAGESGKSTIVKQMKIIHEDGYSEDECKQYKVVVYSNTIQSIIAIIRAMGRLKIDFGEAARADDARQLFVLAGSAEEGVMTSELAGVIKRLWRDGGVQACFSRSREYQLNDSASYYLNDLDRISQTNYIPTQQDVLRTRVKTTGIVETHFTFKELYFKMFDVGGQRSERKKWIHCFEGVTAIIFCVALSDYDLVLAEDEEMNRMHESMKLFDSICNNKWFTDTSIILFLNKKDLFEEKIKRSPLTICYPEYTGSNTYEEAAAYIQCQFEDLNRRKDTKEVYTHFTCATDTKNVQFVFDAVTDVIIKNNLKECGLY
# HCMV NEC inh = inhibitors of HCMV UL50-UL53 interaction, biochemical, HTRF. HCMV UL50-UL53 nuclear egress complex (human cytomegalovirus). normalized percent inhibition. inhibition, % (test concentration not listed). actives 0.15% (n = 190,000). AID 1918969, 2023;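 active = both replicates at 50% or more, plus weaker picks with an unusually low signal ratio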;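 also: stock transfer was 100 nL into about 20 µL; 0% = negative control wells and 100% = wells with untagged competitor protein; inactives centre near -12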
# Sa growth 42C second temp = recorded beside Sa growth 42C, whose call it bears; relative growth, %; measured here: growth at 30 °C;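 optical density after 20 h as mean of two plates; 100% = untreated growth and lower means inhibition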
# Starred values were filed as active, the others as inactive; x = no result given; & = joins results of further samples.
1) CC1(O)NC(=O)C2(C#N)C(C#N)(C#N)C12c1ccccc1 (configuration not stated)
2) O=C(CSc1nc2c([nH]c3ccccc32)c(=O)n1-c1ccc(F)cc1)Nc1ccc2c(c1)OCCO2
3) CCCN(C(=O)c1coc(=O)c2ccccc12)c1cccc(C)c1
4) O=C1CC(Sc2ccc(Cl)cc2)C(=O)N1Cc1ccncc1 (configuration not stated)
5) COc1ccc(C2=NN(C(=O)c3cccs3)C(c3ccccc3F)C2)cc1OC (configuration not stated)
6) COc1ccc(-c2coc3cc4oc(=O)ccc4cc23)cc1
Compound	1	2	3	4	5	6
Sa growth 42C	88	94	87	94	x	90
Sa growth 42C second temp	82	65	82	79	x	87
GIV-Gai inh	x	96	98	99	102	102
HCMV NEC inh	-13	x	-26	0	-18	-19

7) COC(=O)c1ccccc1NC(=O)C1CC(c2ccccc2OC)=NO1 (configuration not stated)
8) Cc1cccc(CC(=O)NCCc2sc(-c3cccc(F)c3)nc2C)c1
9) COc1ccc(NC(=O)Cn2c(=O)n(CCC(C)C)c(=O)c3cccnc32)cc1Cl
10) c1csc(Cc2nc3ccccc3[nH]2)c1
11) Cc1ccc(NC(=O)N2c3ccccc3Sc3ccccc32)c(C)c1
12) CCOc1ccc(-n2c(SCC(=O)N3CCC(C)CC3)nc3c([nH]c4ccccc43)c2=O)cc1
Compound	7	8	9	10	11	12
Sa growth 42C	102	x	106	109	96	106
Sa growth 42C second temp	84	x	98	80	92	93
GIV-Gai inh	100	100	105	x	102	96
HCMV NEC inh	-29	-8	1	-45	x	x

13) Cc1cc(Cl)cc(Cl)c1CNC(=O)C(C)C
14) Clc1cccc(-c2noc(-c3cc(-c4ccccc4)n[nH]3)n2)c1
15) COc1ccccc1-c1nc(-c2cccc(C(F)(F)F)c2)no1
16) CCOc1ccc(NC(=S)N2C(C)CCCC2C)cc1 (configuration not stated)
17) S=P(N1CC1)(N1CC1)N1CC1
18) CCC(C)n1nccc1N (configuration not stated)
Compound	13	14	15	16	17	18
Sa growth 42C	107	x	105	62	91	106
Sa growth 42C second temp	93	x	102	57	89	94
GIV-Gai inh	99	100	104	102	x	x
HCMV NEC inh	5	-21	-4	7	-36	-9

19) Cc1cc(C)nc(N2CCC(C(=O)Nc3nnc(C(C)C)s3)CC2)n1
20) COC(=O)c1cc(-c2ccc(OC)cc2)n[nH]1
21) O=P1(NCCCn2ccnc2)C=C(c2ccccc2)OC(c2ccccc2)=C1
22) O=C(CN1C(=O)C2(SCC(=O)N2c2cccc(Cl)c2)c2ccccc21)NCCc1ccccc1 (configuration not stated)
23) COc1ccc(NC(=O)CSC2=Nc3ccccc3N=C(c3ccccn3)C2)cc1Cl
24) CN(Cc1nc2ccccc2c(=O)[nH]1)C(=O)c1cc(Br)cc(Br)c1O
Compound	19	20	21	22	23	24
Sa growth 42C	96	106	72	147	x	86
Sa growth 42C second temp	81	107	85	101	x	65
GIV-Gai inh	104	102	x	105	101	x
HCMV NEC inh	-26	9	-31	x	-14	-12

25) Cc1ccc(S(=O)(=O)NCc2ccccc2)cc1
26) Cc1cc(-c2noc(-c3cccs3)n2)no1
27) COc1ccccc1C1CCN(C(=O)[C@@H](C)N2CCN(c3ccc(C(F)(F)F)cn3)CC2)CC1
28) c1ccc(-c2ccccc2-n2cnnn2)cc1
29) COc1cc2c(cc1OC)CN1C(=S)N(C)C(=O)C1C2 (configuration not stated)
30) NC1=NC1C(=O)Nc1ccccc1 (configuration not stated)
Compound	25	26	27	28	29	30
Sa growth 42C	95	98	84	109	89	91
Sa growth 42C second temp	88	90	68	83	81	82
GIV-Gai inh	x	98	103	x	102&113	103
HCMV NEC inh	-1&-1	2	-37	-15	-26&-26	-10

31) CCC(=S)/C=C1/Sc2ccc(Cl)cc2N1CC
32) CCCNC(=O)Nc1ccc(Br)cc1F
33) O=C(OCc1cc(Cl)cc2c1OCOC2)c1ccc(COc2ccccc2)o1
34) COC(=O)CC1=CC(=O)N(CC(=O)Nc2cc(Cl)c(OC)cc2OC)c2ccccc2N1
35) CCC(C)SCc1cc(C(=O)O)oc1C (configuration not stated)
36) Cc1nc(Nc2ccc(NC(=O)Nc3ccc(Cl)cc3)cc2)cc(N2CCCC2)n1
Compound	31	32	33	34	35	36
Sa growth 42C	103	109	93	x	100	x
Sa growth 42C second temp	93	77	89	x	90	x
GIV-Gai inh	107	98	x	109	99	99
HCMV NEC inh	x	-33	-6	-39	-21	-17

37) O=c1c2nccnc2[nH]c(=S)n1CCc1c[nH]c2ccccc12
38) CCOc1ccc(S(=O)(=O)NCCO)cc1C
39) O=C(NCCc1ccc(Cl)cc1)c1cccn1-c1nnc(N2CCCCC2)s1
40) CCOC(=O)Cc1csc(NC(=O)c2cc3c(=O)n4cccc(C)c4nc3n2C)n1
41) COc1ccc(-c2cc3ncc(C(=O)c4ccccc4O)cn3n2)cc1
42) CC(C)N(CCCNC(=O)Nc1cn(C)c(=O)c2ccccc12)Cc1ccccc1
Compound	37	38	39	40	41	42
Sa growth 42C	95	95	82	100	x	x
Sa growth 42C second temp	84	105	72	91	x	x
GIV-Gai inh	101	99	98	109	93	102
HCMV NEC inh	x	-1	x	-22	-20	-25

# Gathered by group, the entries above containing fluorine
2) O=C(CSc1nc2c([nH]c3ccccc32)c(=O)n1-c1ccc(F)cc1)Nc1ccc2c(c1)OCCO2
5) COc1ccc(C2=NN(C(=O)c3cccs3)C(c3ccccc3F)C2)cc1OC (configuration not stated)
8) Cc1cccc(CC(=O)NCCc2sc(-c3cccc(F)c3)nc2C)c1
15) COc1ccccc1-c1nc(-c2cccc(C(F)(F)F)c2)no1
27) COc1ccccc1C1CCN(C(=O)[C@@H](C)N2CCN(c3ccc(C(F)(F)F)cn3)CC2)CC1
32) CCCNC(=O)Nc1ccc(Br)cc1F
Compound	2	5	8	15	27	32
Sa growth 42C	94	x	x	105	84	109
Sa growth 42C second temp	65	x	x	102	68	77
GIV-Gai inh	96	102	100	104	103	98
HCMV NEC inh	x	-18	-8	-4	-37	-33

# (listing goes on)
43) COC(=O)CSc1nc(N)c(C#N)c(-c2ccccc2)c1C#N
44) NS(=O)(=O)c1ccc(CCNc2nc3c(-c4cccc(F)c4)nnn3c3ccc(Cl)cc23)cc1
45) COc1ccccc1C1OC(=O)C[C@H]1C(=O)NN (some centres not stated)
46) COc1ccc(-c2nnc3n2N(C(C)=O)C(c2ccc(Cl)c(Cl)c2)=C(C(C)=O)S3)cc1
47) COC(=O)c1c(NC(=O)Cc2coc3cc(C)cc(C)c23)sc2c1CCC2
48) O=C(CN1C(=O)CSc2ccc(S(=O)(=O)N3CCCC3)cc21)NCc1ccc(F)cc1Cl
Compound	43	44	45	46	47	48
Sa growth 42C	92	106	92	102	114	97
Sa growth 42C second temp	92	75	91	91	90	91
GIV-Gai inh	103	105	105	100	102	98
HCMV NEC inh	33	-25	-3	x	-6	x

# Two compounds drawn at random from the list so far, as already listed:
43) COC(=O)CSc1nc(N)c(C#N)c(-c2ccccc2)c1C#N
44) NS(=O)(=O)c1ccc(CCNc2nc3c(-c4cccc(F)c4)nnn3c3ccc(Cl)cc23)cc1
Compound	43	44
Sa growth 42C	92	106
Sa growth 42C second temp	92	75
GIV-Gai inh	103	105
HCMV NEC inh	33	-25

# The results go on.
49) Cc1cc(CSCc2ccc(Cl)cc2)no1
50) O=C(COC(=O)c1n[nH]c2ccccc12)NC1CCCCCC1
51) Cc1cccc(NC(=O)c2oc3ccc(S(=O)(=O)N(C)C4CCCCC4)cc3c2C)c1C
52) Cc1nnnn1CCC(=O)NC(C)c1ccccc1 (configuration not stated)
53) FC(F)(F)c1ccc(N2CCN(C(=S)NC3CC3)CC2)nc1
54) O=C(COc1ccccc1)NCCc1csc2nc(-c3cccc(F)c3)nn12
Compound	49	50	51	52	53	54
Sa growth 42C	102	89	111	108	83	x
Sa growth 42C second temp	80	89	101	75	77	x
GIV-Gai inh	99	x	106	109	x	100
HCMV NEC inh	-4	3	x	-4	-28	2

55) CCOC(=O)Cn1cc(F)c(=O)[nH]c1=O
56) COc1cccc2cc(-c3nc(Nc4cccc(C)c4C)sc3C)c(=O)oc12
57) CC(C)(C)Nc1nc(C(=O)O)nc(N2CCOCC2)n1
58) O=C(Cn1c(=O)c(C(F)(F)F)nc2ccccc21)N1CCc2ccccc2C1
59) COc1ccc(OC)c(NC(=O)CN2C(=O)CC(C)Sc3ccccc32)c1 (configuration not stated)
60) COc1ccc(CCNC(=O)CN(c2ccccc2)S(=O)(=O)N(C)C)cc1OC
Compound	55	56	57	58	59	60
Sa growth 42C	117	89	83	96	103	89
Sa growth 42C second temp	93	87	93	90	86	90
GIV-Gai inh	103	100	103	97	105	97&106
HCMV NEC inh	x	x	x	x	-24	-9&-3

61) CCCc1oc(C(=O)O)cc1CN(CC)CC
62) COc1cc(/C=C(/NC(=O)C2CCCCC2)C(=O)N2CC3CC(C2)c2cccc(=O)n2C3)cc(OC)c1OC (configuration not stated)
63) CCCCCCCOC(=O)C1=C(C)NC(=O)NC1c1cc(Br)c(O)c(OC)c1 (configuration not stated)
64) N#CCN(CC#N)C(=O)C1CC(=O)N(c2ccc(F)cc2)C1 (configuration not stated)
65) Cc1c(C(=O)N2CCCC2)oc2ccc(S(=O)(=O)N3CCCC3)cc12
66) O=C1C(Oc2ccccc2)C(c2ccc3c(c2)OCO3)N1C1CCCC1 (configuration not stated)
Compound	61	62	63	64	65	66
Sa growth 42C	90	105	x	94	94	106
Sa growth 42C second temp	80	104	x	79	86	95
GIV-Gai inh	102	113	99	105	106	95
HCMV NEC inh	x	1	-1	-14	x	x

67) CCc1nnsc1C(=O)Nc1nc2ccc(C)cc2s1
68) CC(=O)Cc1nsc(NC(=O)C2=Cc3cc(Br)ccc3OC=C2)n1
69) CC1CN(C(=O)c2ccccc2)OC(c2cccs2)O1 (configuration not stated)
70) CC1CCc2c(sc3nc(CCC(=O)N4CCC(C(N)=O)CC4)[nH]c(=O)c23)C1 (configuration not stated)
71) CC1(C)C(=O)N(CC(=O)NCc2ccc(F)cc2)c2ccc(S(=O)(=O)N3CCCC3)cc21
72) CNC(=O)CSCc1ccc(C(=O)OC)o1
Compound	67	68	69	70	71	72
Sa growth 42C	59	x	92	x	x	84
Sa growth 42C second temp	46	x	80	x	x	90
GIV-Gai inh	102	106	103	100	103	x
HCMV NEC inh	-37	8	-49	-12	-10	-17

73) COc1ccc(CNC(=O)C2CCCN(S(=O)(=O)c3cccc4nsnc34)C2)cc1 (configuration not stated)
74) O=S(=O)(c1ccc(NC(=S)NCCc2ccccn2)cc1)N1CCOCC1
75) CC(C)(C)c1ccc(Cn2c(CN3CCOCC3)nc3ccccc3c2=O)cc1
76) Cn1cnc2cc(NCc3ccco3)ccc21
77) NS(=O)(=O)c1ccc(-n2nc(C(F)(F)F)cc2-c2cccs2)cc1
78) O=C1CCCc2c1cnc1[nH]n(-c3ccccc3)c(=O)c21
Compound	73	74	75	76	77	78
Sa growth 42C	104	99	132	120	77	x
Sa growth 42C second temp	86	98	91	95	76	x
GIV-Gai inh	104	x	x	101	105	102
HCMV NEC inh	-78	15	-12	-1	-17	-85

79) Cc1ccc(C)c(S(=O)(=O)n2nc(C)c(S(=O)(=O)N3CCCCCC3)c2C)c1
80) O=C(C1CCC1)N1CCCC(c2nc3c(nnn3Cc3cccc(Cl)c3)c(=O)[nH]2)C1 (configuration not stated)
81) Cc1ccc(C)c(NC(=O)c2ccc3nc(CCc4ccccc4)oc3c2)c1
82) C/C(N)=C(/C#N)C(=O)CSc1nc2ccccc2c(=O)n1Cc1ccc(C)cc1
83) CC(C)c1ccc(/C=N/n2nnnc2Nc2ccccc2)cc1
84) O=C1OCc2c1[nH]c(=O)[nH]c2=O
Compound	79	80	81	82	83	84
Sa growth 42C	73	77	89	81	115	115
Sa growth 42C second temp	93	46	91	62	114	82
GIV-Gai inh	107	107	99	x	108	100
HCMV NEC inh	x	10	x	-4	18	-34

# A draw from above in order of molar mass, largest number first.
79) Cc1ccc(C)c(S(=O)(=O)n2nc(C)c(S(=O)(=O)N3CCCCCC3)c2C)c1
82) C/C(N)=C(/C#N)C(=O)CSc1nc2ccccc2c(=O)n1Cc1ccc(C)cc1
77) NS(=O)(=O)c1ccc(-n2nc(C(F)(F)F)cc2-c2cccs2)cc1
81) Cc1ccc(C)c(NC(=O)c2ccc3nc(CCc4ccccc4)oc3c2)c1
83) CC(C)c1ccc(/C=N/n2nnnc2Nc2ccccc2)cc1
Compound	79	82	77	81	83
Sa growth 42C	73	81	77	89	115
Sa growth 42C second temp	93	62	76	91	114
GIV-Gai inh	107	x	105	99	108
HCMV NEC inh	x	-4	-17	x	18

# Going on with the list.
85) CCOc1ccc(NC(=O)CCn2nc(C)c(S(=O)(=O)N3CCCCC3)c2C)cc1
86) O=C(Nc1ccc(Cl)cc1)N1CCSc2ncccc21
87) O=C(CSc1nnc(CCN2C(=O)c3cccc4cccc(c34)C2=O)n1-c1ccccc1)N1CCN(CCO)CC1
88) Cc1cc2[nH]c(=O)c3ccccc3n2n1
89) CN(C)c1ccc(/C=C2\C(=O)Nc3ccccc32)cc1
Compound	85	86	87	88	89
Sa growth 42C	107	x	x	94	x
Sa growth 42C second temp	95	x	x	91	x
GIV-Gai inh	100	108	102	x	132
HCMV NEC inh	x	-2	-88	11	-53&-66&30
